Screening results deposited in PubChem by several laboratories.
FGF22 binding – binders of human FGF22 protein, primary screen, FGF22 synaptogenesis inhibitor project, biophysical, thermal shift, single point; Fibroblast growth factor 22 (Homo sapiens), Q9HCT0; recombinant FGF22 thermal shift, SYPRO orange fluorescence; percent of sucrose octasulfate shift, DMSO zero; calls only at 9.99 µM; hit rate 1.5% among 340,000; AID 651658, 2012;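 active = melting point raised past a set limit in the mean and every replicate; inconclusive = no clear call; three in four hits are not shown here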
Target sequence (Q9HCT0 whole entry, looked up): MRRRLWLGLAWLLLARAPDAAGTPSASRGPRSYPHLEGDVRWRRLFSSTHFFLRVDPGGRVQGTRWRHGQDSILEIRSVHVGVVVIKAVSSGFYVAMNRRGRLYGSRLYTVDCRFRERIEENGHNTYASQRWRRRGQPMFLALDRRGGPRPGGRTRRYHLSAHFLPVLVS
E coli growth – E. coli growth inhibition, primary screen, OD600; AID 1053175, 2014; OD600 absorbance (test concentration not listed); hit rate 0.21% among 330,000; Escherichia coli growth, 23 h; hits give low values;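 active = OD600 absorbance below the run mean of sample wells minus 3.6 SD, in any replicate, cut at about 0.56 in these data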;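 also: stock transfer was 300 nL into about 60 µL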
AF4-AF9 inh – inhibitors of AF4 peptide binding to AF9, primary screen, biochemical, AlphaScreen, biotin-AF4 peptide, FLAG-AF9, single point; hit rate 0.47% among 350,000; AID 651704, 2012; inhibition, % at 10 µM; Protein AF-9 (Homo sapiens), P42568;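 active = every replicate reaching a set inhibition limit, whatever the replicate mean, cut at about 25% in these data; inconclusive = mean inhibition reaches that limit but some replicates miss it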;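 also: 0% = plate neutral control median and 100% = total signal loss; the record names both 10 and 1 µM as test concentration; the first replicate is given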
UCH37 inh – inhibitors of human UCH37 deubiquitinase, primary screen, biochemical, Ub-AMC cleavage, fluorescence | Ubiquitin carboxyl-terminal hydrolase isozyme L5 (Homo sapiens), Q9Y5K5 | purified proteasome/UCH37 | inhibition, % (concentration not given with the values) | hit rate 0.33% among 330,000 | AID 588478, 2011;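 active = mean of two replicates above 20%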;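 also: 0% = compound-free wells with enzyme and 100% = wells lacking proteasome; stock transfer was 100 nL into about 20 µL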
Target sequence (Q9Y5K5 whole entry, looked up): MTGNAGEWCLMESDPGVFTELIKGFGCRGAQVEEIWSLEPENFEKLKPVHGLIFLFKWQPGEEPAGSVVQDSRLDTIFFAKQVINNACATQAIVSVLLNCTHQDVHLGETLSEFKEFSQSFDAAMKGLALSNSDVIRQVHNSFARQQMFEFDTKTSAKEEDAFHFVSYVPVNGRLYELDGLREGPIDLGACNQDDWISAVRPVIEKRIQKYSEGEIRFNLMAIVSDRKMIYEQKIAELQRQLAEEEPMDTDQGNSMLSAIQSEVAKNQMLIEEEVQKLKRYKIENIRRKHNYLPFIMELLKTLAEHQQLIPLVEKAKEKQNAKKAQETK
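Schedule: 30 min plus 25 min, room temperature / Material: human UCH37 within purified proteasomes / Technique: AMC fluorescence intensity at 355/460 nm / Buffer or medium: pH 7.4 Tris-HCl (50 mM) with ovalbumin, ATP-MgCl2, DTT / Controls: wells without proteasome as full block, compound-free enzyme plus substrate as uninhibited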
Vif TR-FRET – inhibitors of Vif binding to APOBEC3G peptide, primary screen, biochemical, TR-FRET, GST-Vif 1-94, biotin-A3G peptide, dose response retest (AID 1117319) | Virion infectivity factor (Human immunodeficiency virus type 1 group M subtype B (isolate … | TR-FRET GST-Vif / biotin-A3G peptide binding; higher % means a stronger effect; test concentration not given here; strong numbers were not always called active | inhibition, %, or IC50 in µM where a hit was titrated | hit rate 0.57% among 260,000;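 active = above the screen mean plus three standard deviations and confirmed in dose response; inconclusive = results disagree or hit not tested in dose response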;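 also: Vif residues 1-94 fused to GST binding biotinylated APOBEC3G peptide 110-148; 0% = full assay without inhibitor and 100% = GST in place of GST-Vif; retest series ran down from 100 µM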
RanGTP-Impb inh – inhibitors of RanGTP-importin-beta interaction, primary screen, biochemical, FRET, CFP-Ran, YFP-importin-beta, homogeneous; inhibition, % (concentration not given with the values); Ran GTPase (GTP-bound) - importin-beta complex; cell-free CFP-Ran/YFP-importin-beta FRET ratio; AID 2216, 2009; hit rate 1.1% among 300,000;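 active = most replicates above 15%; inconclusive = exactly half above 15%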;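 also: 0% = DMSO wells and 100% = Ran loaded with GDP instead of GTP; wells of about 40 µL received 100 nL stock; the first replicate is given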
HNF4A DNA FP – change in binding of human HNF4A to DNA, primary screen, biochemical, fluorescence polarization, FITC-DNA | Hepatocyte nuclear factor 4-alpha (Homo sapiens), P41235 | activity change, % at 10 µM | AID 1224865, 2016 | 1 h | hit rate 0.3% among 360,000; in the data active = activity change above about 30%, passing the limit was not always enough;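 also: controls were the assay level and a saturating level of protein; the project sought stronger binding though the title names inhibitors; some compounds called inactive have numbers as strong as hits; positive values seem to mean higher polarization but the record does not say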
Target sequence (P41235 whole entry, looked up): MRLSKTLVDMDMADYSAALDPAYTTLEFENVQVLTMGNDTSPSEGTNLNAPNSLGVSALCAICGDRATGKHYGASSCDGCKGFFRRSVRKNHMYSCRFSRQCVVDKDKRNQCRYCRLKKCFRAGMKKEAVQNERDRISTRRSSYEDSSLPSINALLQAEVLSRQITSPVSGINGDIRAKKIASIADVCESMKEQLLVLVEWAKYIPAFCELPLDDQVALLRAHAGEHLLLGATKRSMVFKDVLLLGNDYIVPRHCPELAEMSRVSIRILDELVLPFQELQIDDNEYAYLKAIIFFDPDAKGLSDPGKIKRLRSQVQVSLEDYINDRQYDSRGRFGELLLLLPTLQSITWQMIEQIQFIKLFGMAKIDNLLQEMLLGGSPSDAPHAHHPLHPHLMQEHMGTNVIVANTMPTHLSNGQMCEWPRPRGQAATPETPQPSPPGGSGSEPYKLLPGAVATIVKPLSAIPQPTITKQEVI
The depositor's hits bear a star. The list is partial. The share of hits here may be higher or lower than overall.

What do the screens show for `O=C(c1cnccn1)N1CCN(S(=O)(=O)c2cccc(Cl)c2)CC1`?
FGF22 binding: inactive; E coli growth: 0.68; AF4-AF9 inh: -2.3; UCH37 inh: -0.5; Vif TR-FRET: 4.1%; HNF4A DNA FP: -1.8

How did Cc1ccc(NC(=S)N(C)Cc2cn(C)c3ccccc23)cc1 do in these assays?
E coli growth: 0.707; UCH37 inh: 2.2; Vif TR-FRET: -3.6%; RanGTP-Impb inh: -5.2; HNF4A DNA FP: 1.0

Results for CCCN(CC(=O)Nc1ccc(F)c(F)c1F)C(=O)c1cc([N+](=O)[O-])ccc1N1CCOCC1 ?
FGF22 binding: inactive; E coli growth: 0.704; AF4-AF9 inh: 8.6; UCH37 inh: 5.4; Vif TR-FRET: 5.7%; RanGTP-Impb inh: -1.9; HNF4A DNA FP: 2.8

How did Cc1ccc(-c2cc(NC=O)c3ncc(-c4cnn(C)c4)n3c2)cc1 do in these assays?
FGF22 binding: inactive; AF4-AF9 inh: 0.7; HNF4A DNA FP: 11.0

Results for CC(=O)Cc1nsc(NC(=O)c2ccc(COc3cccc(C)c3)o2)n1 ?
FGF22 binding: inactive; AF4-AF9 inh: -1.8; Vif TR-FRET: -6.2%; RanGTP-Impb inh: -0.5; HNF4A DNA FP: 3.2

Results for CCN(C(=O)COC(=O)/C=C/c1ccccc1Cl)c1c(N)n(Cc2ccccc2)c(=O)[nH]c1=O ?
FGF22 binding: inactive; E coli growth: 0.702; AF4-AF9 inh: -0.7; UCH37 inh: -1.7; Vif TR-FRET: 1.8%; HNF4A DNA FP: -2.7

Results for O=C(COc1ccc(Cl)cc1)NCc1nnc(SCC(=O)N2CCCc3ccccc32)o1 ?
E coli growth: 0.696; UCH37 inh: 0.5; Vif TR-FRET: -5.7%; RanGTP-Impb inh: 6.3; HNF4A DNA FP: 0.1

What do the screens show for `COc1cccc(CN(C)C(=O)CCN=C2NS(=O)(=O)c3ccccc32)c1`?
FGF22 binding: inactive; E coli growth: 0.682; AF4-AF9 inh: 1.3; UCH37 inh: 5.0; HNF4A DNA FP: 0.0

What do the screens show for `O=C(Nc1cccc2c1CCCC2)c1ccc(F)cc1`?
FGF22 binding: inactive; E coli growth: 0.647; AF4-AF9 inh: -2.2; UCH37 inh: 7.2; RanGTP-Impb inh: 1.3; HNF4A DNA FP: 0.9

What do the screens show for `O=C1c2ccccc2NC2(CCCC2)N1O`?
E coli growth: 0.74; UCH37 inh: -2.5; Vif TR-FRET: 7.4%; RanGTP-Impb inh: 1.7; HNF4A DNA FP: 0.9

Results for CC(=O)C1(O)C(C)CC2C3CCC4CC(O)CCC4(C)C3=CCC21C (stereo unspecified) ?
E coli growth: 0.695; UCH37 inh: 2.3; Vif TR-FRET: 1.3%; RanGTP-Impb inh: -5.0; HNF4A DNA FP: 2.4

How did COC(=O)CC1C(=O)NCCN1C(=O)c1c(F)cccc1F (stereo unspecified) do in these assays?
FGF22 binding: inactive; E coli growth: 0.653; AF4-AF9 inh: -4.7; UCH37 inh: -1.9; RanGTP-Impb inh: -2.5; HNF4A DNA FP: 2.1

How did CN(Cc1cnccn1)C(=O)CC1C(=O)NCCN1Cc1cccc(Oc2ccccc2)c1 (stereo unspecified) do in these assays?
FGF22 binding: inactive; E coli growth: 0.643; AF4-AF9 inh: -9.7; UCH37 inh: 2.7; RanGTP-Impb inh: -12.9; HNF4A DNA FP: 2.4

Results for CCCCn1c(CNC(=O)C(C)(C)C)nc2ccccc21 ?
FGF22 binding: inactive; E coli growth: 0.668; AF4-AF9 inh: -3.3; UCH37 inh: 4.8; Vif TR-FRET: inconclusive; RanGTP-Impb inh: 0.1; HNF4A DNA FP: 0.6

What do the screens show for `COc1ccc(C2C(C#N)=C(N)N(c3cccnc3)C3=C2C(=O)CC(C)(C)C3)cc1OC` (stereo unspecified)?
FGF22 binding: inactive; E coli growth: 0.69; AF4-AF9 inh: 0.2; UCH37 inh: 1.2; RanGTP-Impb inh: 1.5; HNF4A DNA FP: -2.8

How did COc1ccccc1CNc1ncc(-c2ccccc2)n1C do in these assays?
FGF22 binding: inactive; E coli growth: 0.632; AF4-AF9 inh: 9.2; UCH37 inh: -0.4; RanGTP-Impb inh: 0.8; HNF4A DNA FP: 2.4

Results for CN(/N=C/c1ccc(O)cc1O)c1nc(-c2ccccc2)cc(-c2ccccc2)n1 ?
FGF22 binding: inactive; AF4-AF9 inh: 5.9; Vif TR-FRET: 5.2%; RanGTP-Impb inh: 1.3; HNF4A DNA FP: 0.4

What do the screens show for `CC(C)CC(=O)NC(=S)Nc1ccc(N2CCCC2)c(Cl)c1`?
FGF22 binding: inactive; E coli growth: 0.661; AF4-AF9 inh: 0.7; UCH37 inh: 0.6; RanGTP-Impb inh: -1.9; HNF4A DNA FP: -1.9

Results for COc1cc(OC)cc(C(=O)N2CCN(C(=O)c3ccc(OC)c(OC)c3)CC2)c1 ?
E coli growth: 0.711; UCH37 inh: 1.1; Vif TR-FRET: 2.1%; RanGTP-Impb inh: -0.3; HNF4A DNA FP: -12.1

What do the screens show for `O=C(NC1=NCCS1)c1csc2ccccc12`?
E coli growth: 0.665; UCH37 inh: 4.3; Vif TR-FRET: 17.6%; RanGTP-Impb inh: inconclusive; HNF4A DNA FP: -0.5

2 compounds picked at random from the list so far, as already listed:
Results for CN(/N=C/c1ccc(O)cc1O)c1nc(-c2ccccc2)cc(-c2ccccc2)n1 ?
FGF22 binding: inactive; AF4-AF9 inh: 5.9; Vif TR-FRET: 5.2%; RanGTP-Impb inh: 1.3; HNF4A DNA FP: 0.4

What do the screens show for `O=C(NC1=NCCS1)c1csc2ccccc12`?
E coli growth: 0.665; UCH37 inh: 4.3; Vif TR-FRET: 17.6%; RanGTP-Impb inh: inconclusive; HNF4A DNA FP: -0.5

Next part
What do the screens show for `Cc1ccc(Nc2nc(=O)[nH]nc2C)cc1`?
E coli growth: 0.698; UCH37 inh: 1.8; Vif TR-FRET: 23.2%; RanGTP-Impb inh: -0.5; HNF4A DNA FP: -2.8

Results for O=C(C1CCC(=O)N(C2CC2)C1)N1CCC(Oc2cccc(F)c2)CC1 (stereo unspecified) ?
FGF22 binding: inactive; E coli growth: 0.652; AF4-AF9 inh: -1.4; UCH37 inh: 3.3; RanGTP-Impb inh: -2.1; HNF4A DNA FP: 1.3

Results for CCCOc1ccccc1NS(=O)(=O)c1ccc2[nH]c(=O)[nH]c2c1 ?
FGF22 binding: inactive; E coli growth: 0.624; AF4-AF9 inh: -0.6; UCH37 inh: 2.1; Vif TR-FRET: -2.7%; RanGTP-Impb inh: -1.2; HNF4A DNA FP: 2.4

How did O=C(COc1ccccc1F)Nc1c2c(nn1-c1ccccc1)CS(=O)(=O)C2 do in these assays?
FGF22 binding: inactive; E coli growth: 0.688; AF4-AF9 inh: -2.4; UCH37 inh: 2.5; Vif TR-FRET: 3.0%; RanGTP-Impb inh: -1.6; HNF4A DNA FP: 3.5

Results for CCN(CC)CCNC(=O)C1(O)c2cc(Br)ccc2NC(=O)N1c1ccccc1 (stereo unspecified) ?
FGF22 binding: inactive; E coli growth: 0.677; AF4-AF9 inh: -1.5; UCH37 inh: 2.5; Vif TR-FRET: 0.2%; RanGTP-Impb inh: 0.6; HNF4A DNA FP: -3.0

What do the screens show for `Cc1cccc(NC(=O)c2cc(=O)c3ccccc3o2)n1`?
E coli growth: 0.672; UCH37 inh: 1.8; Vif TR-FRET: 6.0%; RanGTP-Impb inh: inconclusive; HNF4A DNA FP: 2.5

How did O=C(O)C1C2C=CC(C2)C1C(=O)N1CCc2ccccc21 (stereo unspecified) do in these assays?
E coli growth: 0.709; UCH37 inh: 3.4; Vif TR-FRET: 9.2%; RanGTP-Impb inh: 1.5; HNF4A DNA FP: 1.9

What do the screens show for `CC1CC(C)CN(C(=O)C2CCC(CNc3c(N4CCCCC4)c(=O)c3=O)CC2)C1` (stereo unspecified)?
FGF22 binding: inactive; E coli growth: 0.646; AF4-AF9 inh: -29.0; UCH37 inh: -1.9; Vif TR-FRET: -5.2%; RanGTP-Impb inh: 2.5; HNF4A DNA FP: -4.1

What do the screens show for `CCC(c1nnc(SCC(=O)N(C)c2ccccc2)n1Cc1ccccc1)N(C)C` (stereo unspecified)?
FGF22 binding: inactive; E coli growth: 0.682; AF4-AF9 inh: 1.4; UCH37 inh: 0.4; RanGTP-Impb inh: 2.4; HNF4A DNA FP: 6.8

Results for O=C(CC1SC(N2CCCCC2)=NC1=O)Nc1cccc(C(=O)NCc2ccccc2)c1 (stereo unspecified) ?
FGF22 binding: inactive; E coli growth: 0.69; AF4-AF9 inh: -0.2; UCH37 inh: 3.4; Vif TR-FRET: 0.4%; HNF4A DNA FP: 2.5

What do the screens show for `CCCN(C(=O)CSc1n[nH]c(-c2ccc(OC)cc2)n1)c1c(N)n(Cc2ccccc2)c(=O)[nH]c1=O`?
FGF22 binding: inactive; E coli growth: 0.706; AF4-AF9 inh: -5.1; UCH37 inh: 4.6; Vif TR-FRET: 1.3%; RanGTP-Impb inh: -1.9; HNF4A DNA FP: 8.1

Results for COC(=O)c1[nH]c2ccccc2c1NC(=O)C(C)N1CC(C)OC(C)C1 (stereo unspecified) ?
FGF22 binding: inactive; E coli growth: 0.67; AF4-AF9 inh: -0.4; UCH37 inh: -4.5; Vif TR-FRET: 24.9%; RanGTP-Impb inh: -0.6; HNF4A DNA FP: -3.9

What do the screens show for `COc1cccc(C(=O)Nc2cc3c(cc2Br)OCCCO3)c1`?
FGF22 binding: inactive; E coli growth: 0.7; AF4-AF9 inh: -13.8; UCH37 inh: 0.9; Vif TR-FRET: -11.7%; RanGTP-Impb inh: -3.1; HNF4A DNA FP: 0.8

Results for CCCCN(Cc1ccccc1)C(=O)C1CCC(=O)N(CCc2ccccn2)C1 (stereo unspecified) ?
FGF22 binding: inactive; E coli growth: 0.729; AF4-AF9 inh: -0.8; UCH37 inh: 4.1; RanGTP-Impb inh: inconclusive; HNF4A DNA FP: 2.8

What do the screens show for `O=C(N1CCOCC1)N1CCN(Cc2ccccc2)CC1`?
E coli growth: 0.673; UCH37 inh: 1.8; Vif TR-FRET: 14.2%; RanGTP-Impb inh: 0.2; HNF4A DNA FP: 3.4

What do the screens show for `O=C(/C=C/c1cccc(OCc2ccccc2)c1)c1cccnc1`?
FGF22 binding: inactive; E coli growth: 0.681; AF4-AF9 inh: 3.3; UCH37 inh: 5.5; Vif TR-FRET: 13.8%; RanGTP-Impb inh: 2.3; HNF4A DNA FP: 2.4

How did Cc1cc(NC(=O)COc2ccccc2C#N)no1 do in these assays?
FGF22 binding: inactive; E coli growth: 0.702; AF4-AF9 inh: -4.3; UCH37 inh: -2.5; Vif TR-FRET: 2.0%; HNF4A DNA FP: 0.6

How did COc1ccc(Cl)cc1N1C(=O)CN(Cc2cc(OC)c(OC)c(OC)c2)C1=S do in these assays?
FGF22 binding: inactive; E coli growth: 0.676; AF4-AF9 inh: -3.3; UCH37 inh: 4.9; Vif TR-FRET: -7.8%; RanGTP-Impb inh: 1.7; HNF4A DNA FP: 3.1

Results for O=C(COC(=O)CN1C(=O)C2CCCCC2C1=O)Nc1cc(S(=O)(=O)N2CCOCC2)ccc1Cl (stereo unspecified) ?
FGF22 binding: inactive; E coli growth: 0.644; AF4-AF9 inh: -0.2; UCH37 inh: 0.5; Vif TR-FRET: 13.8%; RanGTP-Impb inh: -1.0; HNF4A DNA FP: -1.2
